Compound activity from PubChem.
CSC inhib = blocks cancer stem cells | cancer stem cell-like cells viability, luminescence | inhibition, % at 7.5 µM | 300,000 compounds, 1.1% hits | AID 2717;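 active means mean at 75% or more and at least half the replicates too; inconclusive means mean and replicates disagree; tested in HMLE shEcad cells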;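 further: 0% = median of negative and 100% = median of positive control wells; the first replicate is given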
UUG fidelity = yeast start codon fidelity modulation. S. cerevisiae UUG-firefly luciferase reporter, luminescence/redox ratio. 350,000 compounds, 0.13% hits. activity score, % at 18.7 µM;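 active means replicate mean at a twofold rise or more, about +100% in these data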;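 further: firefly luciferase made from a UUG start codon reports start codon fidelity; reporter light over untreated wells divided by growth signal over untreated wells; some hits fall short of that in this replicate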
Rce1 inhib = yeast Ras-converting enzyme inhibition; yeast membranes, quenched prenylated peptide cleavage fluorescence; Q03530; 290,000 compounds, 0.27% hits; calls only;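 active means fall in fluorescence gain of 50% or more versus controls, with final raw signal at or below 3038400; inconclusive means same 50% fall but final raw signal above 3038400; inactive means fall in fluorescence gain under 50%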;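 further: plate controls were neutral control wells for no effect and wells lacking membranes for full effect; tested at 10 µM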
Target sequence (Q03530 whole entry, looked up): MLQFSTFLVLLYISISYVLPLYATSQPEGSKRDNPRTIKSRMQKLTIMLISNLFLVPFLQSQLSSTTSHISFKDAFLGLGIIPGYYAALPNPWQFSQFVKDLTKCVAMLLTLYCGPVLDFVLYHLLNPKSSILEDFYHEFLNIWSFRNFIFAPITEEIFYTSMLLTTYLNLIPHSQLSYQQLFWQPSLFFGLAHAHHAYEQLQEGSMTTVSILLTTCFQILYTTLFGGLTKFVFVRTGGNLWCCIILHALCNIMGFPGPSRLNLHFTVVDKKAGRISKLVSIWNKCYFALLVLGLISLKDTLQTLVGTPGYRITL
PABP FP inh = PABP-poly(A) binding inhibition; P11940; PABP-poly(A) RNA binding, fluorescence polarization; inhibition, % at 35 µM; 290,000 compounds, 1% hits;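 active means 50% or more with normal probe brightness, or confirmed in later tests; inconclusive means above 50% with abnormal brightness, or retests that disagree; inactive means below 50% or failed in later tests; about a fifth of its hits are not listed in these tables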;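 further: calls also rest on retests at 20 µM and on dose response follow-up; controls were probe without protein and protein plus probe with vehicle; some compounds called inactive have numbers as strong as hits; many hits fall short of the cut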
eIF4H FP inh = inhibitors of RNA binding by human eIF4H. Q15056. eIF4H fluorescence polarization binding assay. inhibition, % at 35 µM. 290,000 compounds, 0.94% hits. AID 2012;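 active means 50% or more with normal probe brightness, or confirmed in later tests; inconclusive means above 50% with abnormal brightness, or retests that disagree; inactive means below 50% or failed in later tests; about a fifth of its hits are not listed in these tables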;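 further: calls also rest on retests at 20 µM and on dose response follow-up; 0% = protein and probe with vehicle and 100% = probe without protein; strong numbers were not always called active; many hits fall short of the cut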
HIV Env fusion = HIV envelope-mediated fusion inhibition. HeLa-JRFL Env/CEM21 cell fusion, luciferase. inhibition, % at 12.3 µM. 360,000 compounds, 1.1% hits. AID 651610;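 active means mean replicate inhibition score of at least 50 and every replicate individually at or above 50; inconclusive means only one of the two criteria met; inactive means mean below 50 and not all replicates reaching 50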;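 further: 0% = plate neutral controls and 100% = maraviroc near 300 nM; one replicate is shown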
MT1-MMP act inh = blocks activation of human MT1-MMP | HT1080 RFP-PRO-GFP cells, GFP/RFP ratio fluorescence, overnight; percent of plate control window, DMSO zero | GFP/RFP ratio change, % at 20 µM | 360,000 compounds, 0.061% hits | AID 651647;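 active means GFP/RFP ratio change of at least 30% with cell ATP level not reduced by more than half and red fluorescence within 50% of control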; further: strong numbers were not always called active
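Test system: HT1080 RFP-PRO-GFP cells; Benchmarks: DMSO and RFP-L50D-GFP cell wells; Timing: cells overnight before dosing, compound overnight, 37 °C, 5% CO2; Compound: one 20 µM compound dose with 1% DMSO; Read-out: GFP/RFP fluorescence ratio.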
MT1-MMP act inh RFP = recorded beside MT1-MMP act inh, whose call it bears; RFP signal change, %; measured here: RFP expression control read;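 0 = vehicle wells; hits needed this value within 50% of zero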
Numbers without * were called inactive; i = inactive; u = inconclusive; x = not tested or not shown.

compound,PABP FP inh,CSC inhib,MT1-MMP act inh,HIV Env fusion,eIF4H FP inh,MT1-MMP act inh RFP,UUG fidelity,Rce1 inhib
COc1ccc(C(=O)/C=C/c2ccc(OC)c(CN3CCOCC3)c2)cc1,-16.5,15.3,-1.8,-45.0,2.9,-4.8,-4.4,i
O=C(/C=C/c1ccc(Br)cc1)c1ccc(NC(=O)c2ccco2)cc1,-3.2,48.1,2.4,-30.4,-31.8,-5.0,-17.7,i
CCOC(=O)c1cccc(NC(=O)CCCn2c(=O)c3cccn3c3cccnc32)c1,5.1,-4.5,1.3,-1.0,0.4,2.2,-14.5,i
COc1cc(NC(=O)c2cnc(NCc3ccccc3)nc2C)cc(OC)c1OC,2.8,-0.2,1.8,28.5,2.0,-14.4,-11.5,i
O=C(NNC1CC(=O)N(c2ccccc2)C1=O)c1ccco1 (stereo not given),7.3,-11.7,-1.9,14.5,-6.6,3.1,x,i
COc1ccccc1NS(=O)(=O)c1cc(N)ccc1N1CCCCC1,-7.4,-7.7,2.3,5.0,-10.2,-0.7,x,i
O=C(NCc1nnnn1-c1ccc(F)cc1)c1ccc2ccccc2c1,x,x,-4.0,1.7,x,-4.9,-11.1,x
Cc1cc(C)c(NC(=S)N(CCN(C)C)C(C)c2cccnc2)c(C)c1 (stereo not given),9.5,-4.9,0.1,7.6,5.5,2.0,x,i
CC(=O)Oc1ccc(C(=O)Nc2ccccc2C(=O)NCC(C)C)cc1,21.1,x,7.6,-1.3,-12.8,6.6,57.7,i
COCCN(C(=O)COC(=O)CSc1ccc2ccccc2c1)c1c(N)n(Cc2ccccc2)c(=O)[nH]c1=O,x,-9.2,-1.7,-16.0,x,1.9,x,i
COC(CNC(=O)C(=O)Nc1cc2c3c(c1)CC(=O)N3CCC2)OC,7.1,-1.5,1.7,-1.8,-5.5,7.0,-13.4,i
CC1(C)CC(=O)C2=C(C1)Nc1ccccc1NC2c1cccc(F)c1 (stereo not given),0.2,-8.5,-1.5,5.3,5.5,4.0,-6.6,i
COc1ccc(NC(=O)C(NC(C)=O)C(=O)NCc2ccccc2OC)cc1 (stereo not given),-11.7,-3.0,-1.8,x,-4.1,2.4,-13.2,i
O=C(NC1CCSc2ccccc21)c1cccc(S(=O)(=O)N2CCOCC2)c1 (stereo not given),x,0.9,1.8,3.8,x,0.3,x,i
Cn1c(CCNC(=O)c2ccco2)nc2ccccc21,x,-8.9,1.9,-21.1,x,-3.1,-14.7,i
Cc1ccc(CNC(=O)C2CCC(=O)N2C(C)C)cc1 (stereo not given),11.0,-18.0,3.1,7.8,-1.3,5.1,7.4,i
CCOc1ccc(N2C(=O)CC(Sc3nc(O)c(CC)c(=O)[nH]3)C2=O)cc1 (stereo not given),x,-4.2,2.1,5.5,x,1.6,-4.9,i
O=C(CNC(=O)c1nc[nH]c1C(=O)N1CCc2ccccc2C1)OCc1ccccc1,-0.1,-9.4,-0.8,20.1,-12.3,0.0,-11.9,i
Cc1ccc(C2=NO[C@@](CC(=O)O)(C(=O)Nc3ccc4c(c3)OCCO4)C2)cc1,0.2,0.4,0.4,-53.9,7.2,0.7,-24.9,i
COc1ccc(OCCCC(=O)Nc2cccc([N+](=O)[O-])c2)cc1,3.4,-13.2,-1.5,-9.3,-6.8,-5.1,-5.6,i
Cc1nc(N)sc1C(=O)NN,-1.4,-14.0,2.1,14.9,4.4,3.2,-21.9,i
CC(C)(C)NC(=O)NC(=O)COC(=O)C1CCN(S(=O)(=O)c2cccs2)CC1,x,x,2.3,-6.3,x,5.0,-13.3,x
Cc1cccc(CN(C)C[C@H]2OCc3cnnn3CCCC(=O)N([C@@H](C)CO)C[C@@H]2C)c1,x,x,1.1,-2.3,x,5.6,6.7,x
Cc1cc2c(cc1C)C(c1ccsc1)CC(=O)N2 (stereo not given),15.5,-21.8,1.6,0.1,2.3,5.3,x,i
CC(C)c1cc(C(=O)O)n[nH]1,8.4,2.4,0.3,x,-0.4,2.7,-15.5,i
CCc1nnc(NC(=O)C2CCN(c3nccc(C)n3)CC2)s1,-8.6,2.9,0.9,-88.8,-3.2,11.4,-13.8,i
CC(O)CSc1nc2c(c(=O)[nH]c(=O)n2C)n1CC(O)COc1ccccc1 (stereo not given),3.9,-23.5,0.4,8.8,6.1,5.7,x,i
Cc1ccc(NC(=O)/C=C/C(=O)O)c(NC(=O)c2ccccc2)c1,11.4,-12.2,3.1,-20.3,0.2,9.4,-5.3,i
Cc1csc(CN(C)C(=O)C2CCC(=O)N(CCCc3ccccc3)C2)n1 (stereo not given),-5.1,12.4,-0.2,-10.3,-14.5,3.1,15.5,i
COC(=O)c1c(NC(=O)CSc2nnc(Cn3nnc4ccccc43)n2C)sc(C)c1C,11.8,-29.0,-0.8,x,-7.6,-1.0,-35.7,i
CCOc1ccc2oc(C(=O)NC3CC(C)(C)NC(C)(C)C3)c(C)c2c1,5.1,x,0.5,8.0,-7.7,1.7,-9.9,i
Cc1ccc(-c2nnc(N3CCN(C(=O)c4ccco4)CC3)c3ccccc23)cc1,-6.2,-3.8,9.5,19.8,-4.3,-5.1,-20.4,i
Cc1c(Cl)cccc1-n1ccnc1SCC(=O)O,-2.8,-21.5,1.1,-10.6,-1.8,4.1,-12.9,i
CC(O)CNc1nc2c(c(=O)n(Cc3ccccc3)c(=O)n2C)n1C (stereo not given),-1.0,-11.4,2.7,-14.1,-7.1,7.0,-8.0,i
CC(=O)NCCCC(=O)NN1C(=S)N(Cc2ccccc2)C(=O)C1CC(=O)Nc1cccc(C)c1 (stereo not given),0.4,-13.9,-3.5,3.6,-7.6,-0.3,x,i
O=S(=O)(c1ccc(Oc2ccc(Br)cc2F)nc1)N1CCCCC1,x,-0.6,2.6,-59.1,x,-5.7,-3.3,i
CCN(CC)S(=O)(=O)c1ccc2c(c1)N(CC(=O)NCc1ccccn1)C(=O)CO2,-3.8,-13.6,-0.4,-5.8,-2.3,0.2,-30.2,i
Cn1c(O)c(C=NC(CC(N)=O)C(=O)O)c(=O)n(C)c1=O (stereo not given),19.1,x,x,x,1.0,x,x,i
Cc1cc(C)cc(NC(=O)c2ccc(CNc3c(N4CCCC4)c(=O)c3=O)cc2)c1,-0.3,-13.4,8.0,13.1,1.8,4.7,18.5,i
O=C(Nc1cccc(Cl)c1N1CCCCC1)c1ccc2c(c1)OCCO2,4.5,u,-1.6,x,-4.8,-4.5,-19.2,i
Cc1ccccc1NC(=O)Nc1nc(C2CCC(=O)N2)cs1 (stereo not given),x,x,10.9,4.1,x,-2.6,-2.7,x
COc1cccc(CNC(=O)CCC(=O)N2CC(C)Oc3ccccc32)c1OC (stereo not given),5.0,-17.0,-0.6,-86.3,-11.3,1.5,2.7,i
S=c1[nH]c2nc(Cl)c(Cl)nc2[nH]1,x,x,-2.0,-22.8,x,6.6,-18.7,x
CCOc1ccc(CCNC(=O)c2ccc(OCc3c(C)noc3C)cc2)cc1OCC,x,-1.3,-3.1,-2.2,x,-14.8,x,x
O=C(O)c1ccc(NC(=O)c2ccccc2NC(=O)c2cccc(F)c2)cc1,-4.7,-9.1,-2.1,7.0,-4.6,-1.2,-0.7,i
O=[N+]([O-])c1ccc(O)c(CN2CCCCCC2)c1,-0.9,-10.1,1.5,-2.9,5.1,6.0,17.6,i
Cc1cccc(-n2c(-c3csc(C)c3C)n[nH]c2=S)c1,3.6,-1.4,-0.4,-14.3,5.5,0.3,-0.1,i
O=c1c2ccccc2nc(CSc2nnnn2-c2ccccc2)n1-c1ccccc1Cl,27.2,-14.6,-2.7,x,-2.1,-4.1,-3.6,i
COc1ccc(-c2nnc(SCC#N)o2)cc1,3.9,-20.5,2.2,-38.8,2.3,3.6,-10.3,i
Cc1ccc(S(=O)(=O)NCCNc2ccc([N+](=O)[O-])cc2C(F)(F)F)cc1,19.3,7.3,2.6,-17.0,-1.4,-4.3,-2.3,i

(cont.)
compound,PABP FP inh,CSC inhib,MT1-MMP act inh,HIV Env fusion,eIF4H FP inh,MT1-MMP act inh RFP,UUG fidelity,Rce1 inhib
Cc1ccc(N(C(=O)CCC(=O)Nc2ccccn2)C(C(=O)NC(C)C)c2ccc(F)cc2)cc1 (stereo not given),8.8,20.9,0.0,-0.4,10.2,1.0,8.4,i
Cc1ccc(C(=O)NNC(=O)C(C)Oc2ccccc2F)cc1S(=O)(=O)N1CCOCC1 (stereo not given),x,24.5,9.5,-40.0,x,1.4,3.5,i
CC(C)CN(CC(C)C)C(=O)Nc1cccc([N+](=O)[O-])c1,-5.0,x,-1.1,1.3,1.6,3.4,x,i
Cc1cc(C(=O)Cn2nc(C(=O)O)c3ccccc3c2=O)c(C)n1-c1ccccc1,-7.6,10.3,-1.1,-3.9,-7.6,0.8,-18.7,i
CCc1ccc(-c2nc(NC(=S)NC(=O)c3cccs3)sc2C)cc1,-1.0,-5.5,0.4,x,-6.8,-2.2,x,i
Cc1ccc(C)c(NC(=S)NC(NC(=O)Cc2ccccc2)C(Cl)(Cl)Cl)c1 (stereo not given),6.1,-6.3,-4.5,x,-3.9,-1.4,-7.0,i
COCCn1c(-c2cccc([N+](=O)[O-])c2)nc2c1c(=O)[nH]c(=O)n2Cc1ccccc1,-7.0,-10.4,-1.0,5.3,-1.1,-2.8,x,i
Cc1ccc(N2C(N)=NC(N)=NC23CCCC3)c(C)c1,-6.3,-16.2,3.6,x,-0.3,5.9,-7.3,i
COc1ccc(CN2CCNC(=O)C2CC(=O)N(C)C2CCOCC2)cc1OC (stereo not given),x,x,-0.2,12.7,x,1.4,7.8,x
C=CCc1cc(C=O)cc(OC)c1OCc1c(Cl)cccc1Cl,0.8,11.7,-3.9,15.6,8.2,-4.0,0.7,i
COc1ccc(NC(=O)CSc2nc3ccccc3c(=O)n2CCC(=O)N2CCCCC2)cc1,-4.6,-6.5,5.7,-127.2,-3.6,1.7,-28.7,i
COc1cc(C(=O)Oc2ccccc2/C=N/NC(=O)c2ccc(C)c(Cl)c2)cc(OC)c1OC,7.1,24.0,2.2,8.2,-4.0,-2.3,x,i
O=[N+]([O-])c1ccc(C2Nc3cccc4cccc(c34)N2)cc1,87.2*,9.9,8.8,16.4,97.3*,9.7,x,i
COc1cc(F)ccc1-c1cc(C(=O)Nc2cc(OC)c(OC)c(OC)c2)[nH]n1,x,x,5.1,-29.8,x,2.8,-30.1,x
C=CCOc1ccc(/C=C2\SC(=S)N(C(C(=O)O)c3ccccc3)C2=O)cc1 (stereo not given),10.2,x,-2.7,3.9,8.7,1.0,x,i
c1ccc(N2CCN(Cc3nc4ccccc4[nH]3)CC2)nc1,-7.7,-2.2,0.4,-24.2,5.1,5.2,-13.1,x
COCCOC(=O)C1=C(C)NC2=C(C(=O)CC(C)(C)C2)C1c1cccnc1 (stereo not given),-10.9,-5.6,-1.4,20.2,-9.4,2.8,-21.2,i
CS(=O)(=O)c1ccc(-c2cc(NC=O)c3ncc(-c4ccc(F)cc4)n3c2)cc1,x,x,-15.6,50.8,x,1.0,-12.9,x
COc1ccc(NC(=O)c2ccc(COCC(F)(F)F)cc2)cc1OC,-12.2,2.2,-3.5,1.1,0.2,-1.6,x,i
